# Source: PubChem BioAssay
# KCNQ2 pot: potentiators of rat KCNQ2 potassium channel; B-score at 10 µM; AID 2239; O88943; CHO-K1 KCNQ2, FluxOR thallium flux fluorescence; stronger effect = higher value; 0.54% of 310,000 active;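 active = fluorescence ratio B-score at least 3 SD of library B-scores, with initial fluorescence B-score within 3 SD, cut at about 5.3 in these data; same plate scores as AID 2156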;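 note: B-score of peak minus minimum over baseline fluorescence ratio after K+ and Tl+ stimulus; positive B-score means potentiation of KCNQ2 with more thallium influx and brighter signal; only the inactives scoring about 0 or higher are listed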
# Target sequence (O88943 whole entry, looked up): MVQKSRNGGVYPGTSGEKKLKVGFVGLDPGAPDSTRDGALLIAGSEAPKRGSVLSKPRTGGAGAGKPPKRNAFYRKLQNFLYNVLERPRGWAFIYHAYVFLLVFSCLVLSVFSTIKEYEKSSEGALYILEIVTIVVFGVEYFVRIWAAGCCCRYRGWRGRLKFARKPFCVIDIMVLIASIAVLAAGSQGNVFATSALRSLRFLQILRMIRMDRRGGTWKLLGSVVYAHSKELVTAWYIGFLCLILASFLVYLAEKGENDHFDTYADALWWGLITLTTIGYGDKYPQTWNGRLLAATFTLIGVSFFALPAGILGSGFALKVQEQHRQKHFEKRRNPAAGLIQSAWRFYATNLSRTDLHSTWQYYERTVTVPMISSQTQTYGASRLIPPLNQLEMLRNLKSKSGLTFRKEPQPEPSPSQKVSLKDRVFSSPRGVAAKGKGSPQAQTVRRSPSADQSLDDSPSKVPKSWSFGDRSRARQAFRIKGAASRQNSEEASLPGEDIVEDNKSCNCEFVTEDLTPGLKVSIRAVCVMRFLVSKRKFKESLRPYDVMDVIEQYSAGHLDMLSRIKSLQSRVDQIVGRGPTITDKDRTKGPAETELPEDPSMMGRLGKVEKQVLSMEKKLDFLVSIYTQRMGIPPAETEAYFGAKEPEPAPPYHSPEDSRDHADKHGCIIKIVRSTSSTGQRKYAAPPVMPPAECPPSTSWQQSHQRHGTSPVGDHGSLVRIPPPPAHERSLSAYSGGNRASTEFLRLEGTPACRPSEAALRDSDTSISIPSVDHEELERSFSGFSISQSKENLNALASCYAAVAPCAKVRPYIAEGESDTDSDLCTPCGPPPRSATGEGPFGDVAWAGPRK
# KCNQ2 pot baseline: second read-out of KCNQ2 pot, no call of its own (marks repeat the call); B-score; compound at 10 µM; measured here: initial fluorescence intensity artifact check;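 brightness before thallium and not channel activity; 0 = typical well and far values either way flag optical interference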
# Numbers without * were called inactive.
SMILES,KCNQ2 pot,KCNQ2 pot baseline
CCCCc1ccc(S(=O)(=O)Nc2ccc(C)c(NS(C)(=O)=O)c2)cc1,1.21,0.12
O=C(Cc1ccc(S(=O)(=O)N2CCCC2)s1)N1CCOCC1,0.17,-0.06
NS(=O)(=O)c1ccc(NC(=O)CSc2ccccc2)cc1,0.87,0.02
Cn1c(C(=O)Nc2ccccc2)cc2sccc21,1.03,-0.14
Cc1cccc(OCC(=O)Nc2cc(C)ccc2O)c1,0.22,-0.33
Cc1ccc(Cl)cc1NC(=S)N(CCCN1CCOCC1)Cc1ccco1,0.32,0.76
CC(C)(C)C(=O)Nc1ccc(N2CCN(c3ccc(C(F)(F)F)cn3)CC2)nc1,0.25,-0.57
Cc1cccc(Oc2ncc(-c3ccc(Cl)cc3)cn2)c1C,0.06,-0.14
Cc1cccc(C)c1NC(=O)NN1C(C)CCCC1C (configuration not stated),0.19,-0.05
Cc1ccc(Cl)cc1Nc1nc(-c2sc(NC(=O)c3cccc(Cl)c3)nc2C)cs1,0.15,0.78
Cc1nc(N2CCN(c3ccccc3)CC2)nc2c1C(=O)CCC2,1.4,-0.15
Cc1ccc(C(=O)N/C(=C\c2cccc([N+](=O)[O-])c2)C(=O)Nc2cccc(C(=O)O)c2)cc1,0.39,-0.29
COc1ccc(C(C)=O)cc1CN(c1ccccc1OC)S(=O)(=O)c1cccs1,1.29,0.78
CC1CCCC(C)N1CC(O)COCc1ccccc1 (configuration not stated),0.3,0.92
CC1(C)Cc2c(cnn2-c2ccccc2)C(=O)/C1=N\NC(=O)c1ccccc1,0.64,-1.15

# Gathered by group: the compounds so far with sulfur
SMILES,KCNQ2 pot,KCNQ2 pot baseline
CCCCc1ccc(S(=O)(=O)Nc2ccc(C)c(NS(C)(=O)=O)c2)cc1,1.21,0.12
O=C(Cc1ccc(S(=O)(=O)N2CCCC2)s1)N1CCOCC1,0.17,-0.06
NS(=O)(=O)c1ccc(NC(=O)CSc2ccccc2)cc1,0.87,0.02
Cn1c(C(=O)Nc2ccccc2)cc2sccc21,1.03,-0.14
Cc1ccc(Cl)cc1NC(=S)N(CCCN1CCOCC1)Cc1ccco1,0.32,0.76
Cc1ccc(Cl)cc1Nc1nc(-c2sc(NC(=O)c3cccc(Cl)c3)nc2C)cs1,0.15,0.78
COc1ccc(C(C)=O)cc1CN(c1ccccc1OC)S(=O)(=O)c1cccs1,1.29,0.78

# Later entries.
SMILES,KCNQ2 pot,KCNQ2 pot baseline
O=C(NCC(=O)N(c1ccccc1)C(C(=O)NC1CCCC1)c1cccnc1)c1ccco1 (configuration not stated),0.65,-0.44
CS(=O)(=O)N(Cc1ccccc1)c1ccc(C(=O)N2CCOCC2)cc1,0.08,-0.67
CCCCN(CC)C(=O)c1ccc2c(c1)OCO2,1.9,-1.34
CNC(=O)c1c(NC(=O)CS(=O)(=O)c2ccc(Cl)cc2)sc(C)c1C,0.12,-1.33
OC(CN1CCOCC1)Cn1cnc2ccccc21 (configuration not stated),0.32,-0.17
O=C(N/N=C/c1ccccc1)c1cc(-c2ccc3c(c2)OCO3)n[nH]1,0.17,-2.85
O=C(CCc1nc(-c2ccccc2)no1)Nc1cc(C(F)(F)F)ccc1Cl,0.82,0.01
CCOc1ccc(NC(=O)Cc2nnc(SCC(=O)N3CCOCC3)n2C)cc1,1.27,-1.38
COc1ccc(C(=O)NCCNC(=O)c2ccccn2)cc1,0.88,-1.07
COC(=O)c1[nH]c(=O)c2ccccc2c1O,0.43,1.48
COc1ccc(/C=N\NC(=O)COc2ccc(C(C)(C)C)cc2)cc1Cn1nc(C)cc1C,0.01,-0.07
COc1ccc(Cl)cc1NC(=S)N1CCN(c2ncccn2)CC1,0.08,-0.17
Cc1ccc(/C=N/N2C(=O)C3C(C2=O)C2C=CC3C23CC3)o1 (configuration not stated),0.44,-0.15
CCc1nc2sc3c(=O)[nH]cnc3c2c2c1CSC(C)(C)C2,3.77,0.53
O=C(Nc1ccc2c(c1)CCCN2C(=O)c1cccs1)c1c(F)cccc1Cl,0.16,-0.69

# Overlap with the part before: 2 entries, followed by the next part.
SMILES,KCNQ2 pot,KCNQ2 pot baseline
CCc1nc2sc3c(=O)[nH]cnc3c2c2c1CSC(C)(C)C2,3.77,0.53
O=C(Nc1ccc2c(c1)CCCN2C(=O)c1cccs1)c1c(F)cccc1Cl,0.16,-0.69
CC(C)Nc1nc2nonc2nc1Nc1ccccc1,0.44,1.51
Cc1ccc(O)c(C(CC(=O)NC(C)C)c2ccccc2)c1 (configuration not stated),0.44,1.67
COc1ccc(/C=N\NC(=O)/C(=C\Nc2nccc(C)n2)NC(=O)c2ccccc2)cc1,0.23,0.1
CN(C(=O)CSc1nc(O)cc(=O)n1-c1ccccc1F)c1ccccc1,1.72,0.69
Nc1nc(F)cc(N2CCCCCC2)n1,0.6,-0.23
CCOc1ccc(-n2nc3ccc(NC(=O)CC)cc3n2)cc1,0.56,-0.77
Cc1cccc(NC(=O)c2ccc3c(c2)CCN3S(C)(=O)=O)c1C,0.75,-0.93
Cc1nn(CC(=O)Nc2cccc(S(N)(=O)=O)c2)c(C)c1[N+](=O)[O-],0.14,0.94
O=C(NCC1COc2ccccc2O1)c1ccc(NC(=O)C(c2ccccc2)c2ccccc2)cc1 (configuration not stated),0.19,0.37
O=C(CS(=O)(=O)c1ccccc1)NC1CCCCC1,0.42,0.42
CCC(=O)Nc1ccccc1C(=O)N1CCOCC1,0.01,-0.4
O=C(CSc1nc2ccccc2c(=O)[nH]1)N1CCN(c2ccccc2F)CC1,1.12,-0.18
COCCNC(=S)N1CCC(NC(=O)c2ccco2)CC1,0.52,0.06
COC(=O)c1ccc2c(c1O)C(=O)c1ccccc1C2=O,0.79,2.12
C/C(=N\OC(=O)c1ccc(Br)cc1)c1ccccn1,0.61,0
COc1ccc(CCNC(=O)c2nnn(CC(=O)Nc3ccc(C)cc3C)c2N)cc1OC,1.34,-0.79
CCCc1nnc(NC(=O)C(=O)NCCN(C)C)s1,0.45,0.03
Cc1cccc(N=C2NC(=O)S/C2=C\c2ccco2)c1,0.33,-0.13
Cc1ccc(C)c(NC(=O)CSc2nnc(CNC(=O)c3ccco3)o2)c1,1.98,-0.86
N#Cc1nc(-c2ccco2)oc1NCCc1ccccc1,0.02,2.48
COc1ccc(Cl)cc1NC(=O)c1cc(S(=O)(=O)N2CCCC2)cn1C,0.84,-1.43
CCNC(=S)NNC(=O)Cc1ccccc1,1.45,0.79
COCC(C)NC(=O)c1cccc(Cl)c1 (configuration not stated),0.88,-0.01
COc1ccc(Cl)cc1NC(=S)NNC(=O)CC(C)C,2.21,0.79
O=C(N/C=C/c1ccco1)OCc1ccccc1,3.55,-0.1
CCCc1[nH]nc2c1C(c1ccc(OC(=O)N3CCOCC3)cc1)C(C#N)=C(N)O2 (configuration not stated),0.01,1.28
Cc1c(O)nc2ccccn2c1=O,0.05,1
COC(=O)[C@H](Cc1ccccc1)NC(=O)Nc1ccc(C)cc1,0.27,-0.31
Cc1ccc(S(=O)(=O)N2CCCC2C(=O)OCc2ccco2)cc1 (configuration not stated),1.35,-0.31
COc1ccc(Cn2c(=S)[nH]c3cc(C(=O)NCc4cccnc4)ccc3c2=O)cc1,1.66,-0.31
COc1ccc2nc(NC(=O)CSCc3c(C)noc3C)sc2c1,0.84,0.01
O=C(O)c1cc(Nc2nc(N3CCOCC3)nc(N3CCOCC3)n2)ccc1Cl,2.05,-0.87
CNC(=S)N/N=C/c1c(C)c(C(=O)c2ccc(F)cc2)n2ccccc12,0.78,-0.97
O=c1ccc2cc(O)c(O)cc2o1,0.21,-0.13
CSc1nsc(/C=C/Nc2ccc(C)cc2)c1C#N,1.1,0.03
COC(C[C@H]1O[C@H]1[C@H](O)[C@@H](C)OCc1ccccc1)OC,0.33,0.33
Oc1ccc(-c2[nH]ncc2-c2nc3ccccc3s2)c(O)c1,0.29,0.13
O=C1CC(=O)Nc2cc(S(=O)(=O)Nc3cccc(C(F)(F)F)c3)ccc2N1,0.93,-0.43
Cc1cccc(NC(=S)N2CCC(C(N)=O)(N3CCCCC3)CC2)c1C,1.02,0.01
COc1ccccc1N1C(=O)c2ccc(C(=O)Nc3ccc(F)cc3)cc2C1=O,0.61,-1.07
CC(=O)N1CCN(S(=O)(=O)c2cccc(C(=O)NCCc3ccc(Cl)cc3)c2)CC1,0.56,-0.53
CCCCn1c(SCC(=O)Nc2cc(C)on2)nnc1-c1ccco1,1.24,0.11
CC(C)(C)c1ccc(/C=N/NC(=S)NCc2ccccc2)cc1,1.08,-0.5
Cc1ccc(NC(=O)C2c3ccccc3Oc3ccccc32)nc1,0.08,0.31
Cc1sc2ncnc(NCc3ccccc3)c2c1C,1.26,1.77
Cc1nnc2ccc(-c3ccc(NS(=O)(=O)c4ccc(F)cc4F)cc3)nn12,2.62,0.08
O=C(Nc1ccc2c3c(cccc13)CC2)c1cccc([N+](=O)[O-])c1,1.37,-1.03
CCCn1cc(CN2CCC(C(=O)Nc3cccc(-c4cscn4)c3)CC2)c(C)n1,1.02,-0.33
CC(C)NC(=O)c1ccc2c3n(nc2c1)-c1ccccc1CO3,0.67,1.27
O=C(CSc1ccc(C(F)(F)F)cc1[N+](=O)[O-])N1CCOCC1,0.42,-0.06
COc1ccc(C(=O)CSc2nnc(CN3CCCC3)n2-c2ccc(F)cc2)c(OC)c1,0.6,-0.14
CCn1cc(C(=O)OC)c(=O)c2cc(S(=O)(=O)N(C)C3CCCCC3)ccc21,0.79,-0.68
CN(C)S(=O)(=O)c1cc(NC(=O)[C@H](Cc2ccccc2)N2C(=O)c3ccccc3C2=O)ccc1Cl,0.65,-0.6
Cn1c(SCC(=O)N/N=C/c2ccc([N+](=O)[O-])s2)nnc1-c1ccc(Cl)cc1,0.65,-0.16
CCN1C(=O)c2cccc3c(S(=O)(=O)NC(Cc4ccccc4)C(=O)O)ccc1c23 (configuration not stated),0.67,-0.57
Cc1cc(C)n(-c2ccccc2C#N)n1,2.35,-1.02
CCc1nc(SCc2cccnc2)c(C#N)cc1C,0.62,-1.1
COc1ccc(C(=O)Nc2cccc(/C(C)=N/NC(=O)c3ccc([N+](=O)[O-])c(C)c3)c2)cc1OC,1.09,-2.17
Cc1[nH]n(-c2ccccc2)c(=O)c1N=Nc1ccccc1,0.51,1.24
Cc1cc(C(F)F)n2nc(C(=O)Nc3cccc(S(=O)(=O)N4CCOCC4)c3)nc2n1,2.87,-1.95
# (listing goes on)
SMILES,KCNQ2 pot,KCNQ2 pot baseline
CCCn1nnc(NC(=O)c2cccc(OCC(C)C)c2)n1,0.56,0.97
COc1ccc(C2NC(=O)NC(C)=C2[N+](=O)[O-])cc1 (configuration not stated),0.5,-1.12
CCOC(=O)CSc1nnnn1-c1cc(OC)ccc1OC,1.86,1.21
O=C(Nc1ccsc1C(=O)O)c1cccc(C(F)(F)F)c1,0.59,0.99
CCn1c2ccccc2c2cc(NC(=O)CSc3nnc(-c4cccc(F)c4)o3)ccc21,0.09,0.59
Cc1ccc(C(=O)Nc2ccc(C(=O)N/N=C/c3ccncc3)cc2)cc1,0.74,-0.28
CCOC(=O)N1CCN(C(=O)COc2ccc3c(c2)C(=O)CC2(CCN(C(C)=O)CC2)O3)CC1,0.2,1.68
CCOc1ccc(Cl)cc1S(=O)(=O)NC1CCCC1,0.01,0.04
O=C(Nc1ccc(Cl)cc1C(=O)NCC1CCCO1)c1ccco1 (configuration not stated),0.16,0.25
Cc1ccc2c(c1)c1ncnc(N3CCOCC3)c1n2C,1.32,0.02
CC(NC(=O)CNC(=O)c1sc2ccccc2c1Cl)c1cccnc1 (configuration not stated),2.04,-2.03
Cn1c(N)c(S(=O)(=O)N2CCN(c3ccccc3)CC2)c(=O)n(C)c1=O,0.22,-0.06
COc1cc(/C=C2\CCCc3c2nc2ccccc2c3C(=O)O)cc(Cl)c1O,0.55,-1.2
Cc1ccccc1NC(=O)c1sc2nc[nH]c(=O)c2c1C,0.38,1.77
NC(=O)CSc1nc2cc([N+](=O)[O-])ccc2n1-c1cccc(C(F)(F)F)c1,0.52,-0.76
CCOC(=O)N1CCN(C(=O)c2cc3cc(C)ccc3[nH]2)CC1,0.06,1.03
CC1CCCC2(C1)NC(=S)N(c1ccccc1)N2 (configuration not stated),0.76,-0.2
CN(CC(=O)Nc1cccc(F)c1)C(=O)/C=C/c1cc(Br)ccc1OC(F)F,0.06,-2.75
COc1ccc(-c2nc(C)ncc2-c2ccc(Cl)cc2)c(O)c1,0.82,-1.07
Cc1ccc2oc(=O)c3cnn(CC(=O)Nc4cc(-c5cccc(F)c5)no4)c3c2c1,0.9,-0.98
O=C(COc1ccc(Cl)cc1Cl)NC(=O)c1ccccc1,0.75,-0.92
O=C(O)c1cccc(Cn2c(Cl)c(/C=N/NC(=O)c3ccccc3)sc2=O)c1,1.74,-0.02
O=C(Oc1cccc(Br)c1)c1cccnc1,0.47,-0.24
Cc1ccc(C(=O)Nc2ccc(S(=O)(=O)N3CCCC3)cc2)o1,0.65,-0.07
O=C(c1ccco1)N1CCN=C1SCc1ccccc1F,0.56,-0.05
CCOC(=O)C1=C(O)/C(=C/c2ccc(OCC(=O)O)c(OCC)c2)SC1=Nc1ccc(C)cc1,1.07,0.03
C/C(=N\NC(=O)c1ccn[nH]1)c1cn(C)nc1C,1.2,-0.74
CCn1c(=S)[nH]c2cc(Cl)ccc21,0.63,0.68
C/C(=N\NC(=O)Cn1nc(C)c(Br)c1C)c1cccs1,0.33,0.63
O=C(Nc1ccccc1-c1ccccc1)c1cnccn1,0.07,0.52
O=C(c1cccs1)N1CCN(Cc2ccccn2)CC1,0.06,-0.04
COc1ccc(-c2noc(CCC(=O)NC3CCN(Cc4ccccc4)CC3)n2)cc1,3.18,-3.21
O=C(O)CSc1nnc(-c2ccccc2O)n1Cc1ccccc1,0.24,-1.2
O=C(CC1(O)C(=O)Nc2ccccc21)c1ccccc1 (configuration not stated),1.14,2.33

# Three compounds out of the list above, ordered by the value under KCNQ2 pot baseline, largest number first.
Compound | KCNQ2 pot baseline
Oc1ccc(-c2[nH]ncc2-c2nc3ccccc3s2)c(O)c1 | 0.13
Cc1ccc(C(=O)Nc2ccc(S(=O)(=O)N3CCCC3)cc2)o1 | -0.07
CCOc1ccc(-n2nc3ccc(NC(=O)CC)cc3n2)cc1 | -0.77

# Only part of the results is shown; rates above refer to the full screens.
